# Compound activity: PubChem BioAssay, ICCB-Longwood Screening Facility, Harvard Medical School
# KSHV LANA nucl = inhibitors of KSHV LANA binding to nucleosomes; FITC-LANA1-23 / chicken nucleosome fluorescence polarization; active compounds read low; z-score (concentration not given with the values); 51,000 compounds, 0.3% hits; AID 720717;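 active = both repeat wells score below -2 in polarization z-score versus plate sample wells, excluding overly bright wells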;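 also: 100 nL library stock added to about 30 µL; numbers are from one replicate; some results filed as inactive read as strong as hits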
#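 Material: Purified chicken nucleosomes with FITC-labelled LANA N-terminal peptide (1-23) | Reagent: 50 nM FITC-LANA1-23 probe | Medium: TEN-BT buffer, pH 7.5 | Times: 10–45 min incubation at room temperature | Detection: Fluorescence polarization | Replication: Duplicates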
# BasE inh = BasE siderophore biosynthesis inhibition. AID 485350. purified BasE, fluorescence polarization binding displacement. 84,000 compounds, 0.1% hits. inhibition, % (test concentration not listed);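 active = both replicates above 25% with normal brightness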;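 also: 0% = negative plate control signal and 100% = positive plate control signal; stock transfer was 100 nL into about 30 µL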
# * marks the source's active call; other numbers are inactive results; . = no result given; & = joins results of further samples. Not all compounds are listed, so the mix of outcomes need not match the whole.
# A first look, seven compounds:
compound,KSHV LANA nucl,BasE inh
Cc1ccc(C)c(NCC(=O)NC2CCCCC2)c1,.,-2.8
Oc1c(/C=N/n2cnnc2)sc2ccccc12,0.16,2.1
COc1cccc(C2CC(=O)Nc3cc4c(cc32)OCO4)c1 (configuration not stated),0.25,-0.6
Cc1ccc(C(=O)N/C(=C\c2ccco2)C(=O)N(C)C)cc1,-0.52,2.8
CN(C)c1ccc(C(CNC(=O)c2ccccc2)N(C)C)cc1 (configuration not stated),0.24,-0.1
CC(C)c1ncc(C(O)c2cccc3ccccc23)n1C (configuration not stated),1.1,-1.4
CSc1nc(=O)cc(N)n1-c1ccccc1,-0.37,3.0

# All compounds of this part, repeating the preview:
compound,KSHV LANA nucl,BasE inh
Cc1ccc(C)c(NCC(=O)NC2CCCCC2)c1,.,-2.8
Oc1c(/C=N/n2cnnc2)sc2ccccc12,0.16,2.1
COc1cccc(C2CC(=O)Nc3cc4c(cc32)OCO4)c1 (configuration not stated),0.25,-0.6
Cc1ccc(C(=O)N/C(=C\c2ccco2)C(=O)N(C)C)cc1,-0.52,2.8
CN(C)c1ccc(C(CNC(=O)c2ccccc2)N(C)C)cc1 (configuration not stated),0.24,-0.1
CC(C)c1ncc(C(O)c2cccc3ccccc23)n1C (configuration not stated),1.1,-1.4
CSc1nc(=O)cc(N)n1-c1ccccc1,-0.37,3.0
CCCC(=O)Nc1ccc2c(c1)ncn2CC,-0.94,1.5
O=C(/C=C/c1ccccc1)Nc1ncnc2sc3c(c12)CCC3,.,-0.3
COc1ccc(C(=O)NCCNc2nc3c(C)cccc3cc2C#N)cc1OC,1.2,-1.3
CCCCC[C@H](O)CC[C@H]1[C@H](O)CC(=O)[C@@H]1CCCCCCC(=O)O,-0.57,1.6
CC1Cc2ccccc2N1C(=O)/C=C/c1cccc(F)c1 (configuration not stated),.,0.5
CCOc1ccc(CCNC(=O)CN2CCN(Cc3ccccc3F)C2=O)cc1OCC,-0.21,1.7
O=S(=O)(c1ccccc1C(F)(F)F)N1C=CC(C(F)(F)F)=NCC1,-0.76,2.1
COC(=O)NNc1ccccc1,.,2.8
CC1=C(CCC2(C)OCCO2)C(C)(C)CCC1,0.55,-0.1
COc1ccc(CNC(=O)c2ccc(Br)o2)cc1,1.5,-1.0
O=C(c1cnn(-c2cccc(F)c2)c1-n1cccc1)N1CCCC1,.,3.0
COc1ccccc1NC(=O)/C=C\c1ccco1,.,-0.2
O=C(NCC1CC1)c1ccccc1NS(=O)(=O)c1cccc2nonc12,.,1.2
CC(c1n[nH]c(=S)n1-c1ccccc1)N(C)C (configuration not stated),.,0.3
CC1CCN(c2nc(Nc3ccccc3)c3cnn(C)c3n2)CC1,-1.1,0.1
CC(C)(C)OC(=O)N1CCC(C(=O)OCC(=O)Nc2ccc(F)cc2)CC1,.,1.3
N=C1S/C(=C\c2ccc(F)cc2)C(=O)N1c1nccs1,0.6,-2.5
COc1ccc(CNC(=O)c2oc3ccccc3c2-n2cccc2)cc1,-1.1,.
COc1ccc(C2Nc3cc(C(F)(F)F)c(S(N)(=O)=O)cc3S(=O)(=O)N2)cc1 (configuration not stated),.,0.1
CC1CCCCN1c1ncnc2onc(-c3ccc(Cl)cc3)c12 (configuration not stated),1.5,-1.0
NC(CCO)c1cccc(Cl)c1 (configuration not stated),0.91,.
N#CCCNc1ccc2c(c1)OCCO2,.,1.6
O=C(Nc1nonc1-c1nc2ccccc2[nH]1)c1ccncc1,-0.84,3.1
Cc1ccc(-c2n[nH]c(=S)c3ccccc23)cc1S(=O)(=O)N1CCN(C)CC1,-0.23,-0.9
O=C(c1ccccc1)c1ccc2nc(N3CCCC3)c3nncn3c2c1,.,2.6
CC(Oc1ccccc1)C(=O)NC1CCSC1=O (configuration not stated),.,-1.0
CC1CN(c2ccccc2)C(=O)CS1 (configuration not stated),2.2,2.6
O=C(O)c1ccccc1S(=O)(=O)CC(=O)N1CCCCC1,-0.53,1.4
O=C(Nc1ccc(Cl)cc1)C(=S)N1CCOCC1,-0.66,-0.3
COc1ccccc1OC(=O)c1ccc(SC)cc1OC,.,0.3
CN(Cc1ccco1)C(=O)/C=C/c1cn(Cc2ccccc2)nc1-c1ccccc1,.,-1.9
O=C(CCNC(=O)c1ccco1)NC1CCCCCC1,.,0.9
COCCn1c(=S)[nH]c2ccccc2c1=O,-0.28&-0.14,1.0&-1.7
Cc1nn(-c2ccc(Cl)cc2)c2sc(C(=O)OCC(=O)N3CCNC3=O)cc12,.,-2.3
COc1cc2c(cc1OC)C1=C(C#N)CC/C(=N\S(=O)(=O)c3ccccc3)N1CC2,2.9,-3.4
O=C(/C=C/c1ccc2c(c1)OCO2)N1CCN(c2n[nH]c(=O)[nH]c2=O)CC1,.,3.3
COC(=O)CNC(=O)c1ccc(OC)cc1,2.3,-2.5
CCN1C(=Nc2ccc(O)cc2)SC/C1=C\C(=O)OC,2.3,-0.8
C=CCNC(=S)Nc1sc2c(c1C(=O)OCC)CCCCC2,.,0.8
Cc1ccc(-c2csc(COC(=O)C(C)(C)C)n2)cc1,.,-2.3
Cc1ccn(-c2ccc(NC(=O)C3CC3)cc2)n1,-0.28,-1.5
COc1ccc(-n2c(C)cc(C(=O)COC(=O)c3nccnc3N)c2C)cc1,.,0.1
CC1(C)CC2CC(C)(CN2C(=O)COC(=O)c2ccc3c(c2)S(=O)(=O)N=C2CCCCCN23)C1 (configuration not stated),.,1.7
CC(O)CN(N)C1=NS(=O)(=O)c2ccccc21 (configuration not stated),2,-3.2
CC1=C(C#N)C(=O)NC(=O)/C1=C\c1ccc(-c2ccccc2)o1,.,3.5
C=CCNC(=O)c1ccc(C(F)(F)F)nc1C,.,-0.7
Cc1ccc(S(=O)(=O)N2CCOCC2)cc1,0.11,-0.7
CCOc1cc2c(cc1OCC)C1C(C(=O)N3CCCC3)c3ccccc3C(=O)N1CC2 (configuration not stated),0.45,1.1
CCOc1ccc(N(C)C(=O)CCc2nnc3ccc(N4CCCC4)nn23)cc1,0.82,0.5
Cc1cc(C)nc(NNC(=S)Nc2ccccc2C)n1,.,2.3
CN(CC(N)=O)S(=O)(=O)c1ccc2ccccc2c1,0.082,-1.1
Cc1nn(CCCC(=O)N2CCCCC2)c(=O)c2c1sc1ccccc12,-0.45,0.6
COC(=O)C(C)Sc1nnc(-c2ccc(Br)cc2)o1 (configuration not stated),.,0.9

# (cont.)
compound,KSHV LANA nucl,BasE inh
C=CCn1c(C(CC)CC(C)(C)O)n[nH]c1=S (configuration not stated),0.22,-1.2&-0.3
O=C(Nc1ccc(F)cc1F)NN1CCOCC1,0.014,-1.5
CCc1cc2c(=O)c(-c3nc(C)cs3)c(C(=O)O)oc2cc1O,-1.3,-1.4
c1ccc(CCNc2nsc3ccccc23)cc1,.,0.8
CCOC(=O)c1cnc2cc(-c3ccc(I)cc3)[nH]n2c1=O,-0.4,2.4
CC1(C)CC(=O)C2=C(C1)Nc1ccccc1NC2c1ccc2c(c1)OCO2 (configuration not stated),-0.0015,1.6
O=C1CCc2cc3c(cc2O1)OC(=O)CC3,.,0.9
O=C1CC(N2CCN(c3ccccn3)CC2)C(=O)N1c1ccc2c(c1)OCO2 (configuration not stated),1.2,1.1
Cc1ccc(NCN2C(=O)C3CC=CCC3C2=O)cc1Cl (configuration not stated),-1.1,0.3
O=C(Nc1ccc(-c2nc3ccccc3o2)cc1)c1ccccc1Cl,.,-4.1
COC(=O)c1ccc(CSc2nnc(SC(C)C(=O)c3ccc(F)cc3)s2)o1 (configuration not stated),.,-0.1
O=S1(=O)CCN(CC2CCCC2)CC1,0.018,.
Nc1c(N)c2ccccc2oc1=O,1,-0.6
CCCS(=O)(=O)N1CCC2(CC1)CC(=O)c1ccccc1O2,-0.019,3.2
Oc1c(C(c2ccccn2)N2CCN(c3ccc(F)cc3)CC2)cc(Cl)c2cccnc12 (configuration not stated),.,-0.6
NNC(=O)c1cccnc1Oc1ccccc1,.,-0.1
COc1ccc(NC(=S)NC(C)(C)C)cc1,-0.31,1.6
CN(Cc1ccccc1)C(=O)COC(=O)c1ccc(O)cc1,.,4.1
CC(C(=O)Nc1ccc(C(N)=O)cc1)N(C)Cc1cccs1 (configuration not stated),.,0.4
c1coc(-c2nnc(-c3ccco3)nn2)c1,.,16
COCCNC(=O)c1cc[n+]([O-])cc1,.,-0.7
CCCN1COc2ccc3c(-c4ccccc4)cc(=O)oc3c2C1,-0.49,2.0
COc1ccc(N(CN2C(=O)c3ccccc3C2=O)C(=O)c2ccccc2)cc1,.,2.3
CCNS(=O)(=O)c1cccc(S(=O)(=O)c2ccc(Cl)cc2)c1,0.13,1.9
NS(=O)(=O)c1ccc(-n2nncc2-c2ccccc2)cc1,.,-0.8
CC(C)(C)OC(=O)N1CCc2[nH]ncc2C1,0.14,-0.4
CN(CC(=O)Nc1ccccc1SCC#N)c1ccccc1,.,-31
CN(C)/C=C/C(=O)c1ccc2c(c1)CCO2,.,-0.4
C=CCC(c1ccncc1)/[N+]([O-])=C\c1ccccc1 (configuration not stated),-0.94,3.6
Cc1ccccc1CNC(=O)c1cc2cccc3c2n1CCO3,0.27,1.5
Cc1sc2nc(COC(=O)c3ccc(S(=O)(=O)NCc4ccco4)cc3)[nH]c(=O)c2c1C,.,-0.1
CC(NCc1ccc(Cl)cc1)=C(C#N)C#N,.,-3.4
Cc1c(S(=O)(=O)c2ccc(Cl)cc2)csc1S(=O)(=O)N1CCCCC1,-0.27,-1.1
CCN(Cn1ncn(C)c1=S)C1CCCCC1,.,-0.3
COc1ccc2nc(NC(=O)c3ccc(C)cc3)sc2c1,.,-1.1
Clc1ccc(-c2nnc(CN(CCOc3cc(Cl)ccc3Cl)C3CC3)o2)cc1,.,0.6
N#Cc1cccc(OCC(=O)C23CC4CC(CC(C4)C2)C3)c1,.,-1.0
CCCCCCc1c(O)nc(SCCN(CC)CC)n(-c2ccccc2)c1=O,0.012,4.6
FC(F)(F)c1cccc(NC(=S)N2CCCCC2)c1,-0.098,-2.2
O=C(CSc1nc(-c2ccccc2)nc2c1CCCC2)N/N=C/c1ccco1,-1.1,3.3
Cc1cc(C)cc(-n2c(SCc3cn4ccsc4n3)nc3ccccc3c2=O)c1,.,1.3
Cc1nnc2c(N3CC=C(c4ccccc4)CC3)nc3ccccc3n12,0.12,0.9
O=C(CCc1nnc2n(Cc3ccccc3)c(=O)c3ccccc3n12)NCc1ccccn1,-0.72,-0.6
Cn1c(SCC(=O)N2CC(=O)Nc3ccccc32)nnc1C(F)(F)F,.,-0.3
CC(=O)NC(Cc1c[nH]c2ccccc12)C(=O)Nc1cccc(C#N)c1 (configuration not stated),.,-0.9
CC1(C)Cc2cccc(OCC(=O)Nc3cccnc3)c2O1,.,0.2
COc1ccc(CN(C)C(=O)Cc2c[nH]c3ccccc23)c(OC)c1OC,.,2.4
COc1cccc(N2C(=O)Nc3ccccc3C2(O)C(=O)NC2CCCCCCC2)c1 (configuration not stated),0.33,0.2
CCCSc1nnc(-c2ccc(Cl)cc2)n1Cc1ccco1,.,0.3
CCC(C)NC(=O)c1nn2c(c1Cl)NC(c1ccc(OC)cc1)CC2C(F)(F)F (configuration not stated),.,1.9
CCOC(=O)c1cnc(SCC(=O)Nn2c(C)nc3sc(C)cc3c2=O)nc1N,2,-7.3
O=C(Nc1ccc(S(=O)(=O)N2CCOCC2)cc1)c1cc2ccccc2o1,0.37,-1.7
O=C(NCc1cccs1)c1nc2ncccn2n1,-0.069,0.4
CN(C)Cn1c2ccccc2c2ccccc21,-0.98,0.7
O=C1c2ccccc2S(=O)(=O)NN1Cc1nnc(-c2ccccc2Br)o1,.,-4.6
O=C(Nc1ccc2c(c1)SC1=NCCN12)C(F)(F)F,-1.3,1.8
NC(=O)COc1ccc(S(=O)(=O)c2ccc(OCC(N)=O)cc2)cc1,0.89,1.8
Cc1occc1C(=O)N/N=C/c1c[nH]c2ccccc12,0.6,1.1
CC1(C)CC(N=CC2=C(O)c3ccccc3C2=O)CC(C)(C)N1,-1.1,-0.8
CC(C)(C)CC(=O)Nc1ccc(-c2nnc3n2CCCCC3)cc1,.,0.5

# New compounds follow.
compound,KSHV LANA nucl,BasE inh
CC(C)(C)c1ccc(/C=C/C(=O)Nc2cccnc2)cc1,.,14
CC1CCC(NC(=O)CN(C)S(=O)(=O)c2ccc3c(c2)CCC(=O)N3)CC1 (configuration not stated),-0.057,2.5
Oc1c(C(c2ccc(C(F)(F)F)cc2)N2CCOCC2)ccc2cccnc12 (configuration not stated),.,2.5
N#CCSc1nc2cc(Cl)ccc2n1Cc1ccccc1,.,-1.2
c1ccc2sc(CSc3nc4ccccc4s3)nc2c1,.,-0.7
CCCCC(=O)N1CC(=O)Nc2ccc(C)cc2C1c1ccc(F)cc1 (configuration not stated),0.38,-1.6
CSc1cccc(NC(=O)c2ccc3c(c2)NC(=O)CS3)c1,.,-3.4
